Screening data (PubChem BioAssay)
SARS PLP yeast: SARS-CoV PLP inhibition in yeast | actives 0.19% (n = 330,000) | Potency, µM (doses to about 32.9 µM), for inactives: at the highest dose activity, positive = growth rescue | S. cerevisiae expressing SARS-CoV PLpro, growth rescue; control for the full effect not named in the record; further: 0% is about no effect; nearly all actives have a fitted effect of over 55% in size; growth read by luminescence after 48 h
Marburg entry inh: Marburg virus entry inhibition; Marburg virus pseudotyped entry inhibition, cell reporter; control for the full effect not named in the record; about a third of the inactives were read at about 46 µM; Potency, µM (highest dose often 37.8 µM), for inactives: at the highest dose activity change, negative = inhibition, most hits filed as inhibitors; actives 1.8% (n = 300,000); active = well fitted inhibition curve with a large enough effect; inconclusive = small, poorly fitted or top-dose-only effect, or effect the other way; inactive = flat fitted curve, though single readings scatter; tested in HEK293 cells; about a fifth of its hits are not listed in these tables; further: on the % scale 0 is the no-effect control and ±100 the full control effect; luciferase read-out
Cruzain noTriton: blocks cruzain activity in detergent-free assay. P25779. purified cruzain, Z-FR-AMC fluorescence, no detergent. Potency, µM, inactives show max response, negative = inhibition, hits mostly inhibitors. actives 2.3% (n = 200,000). AID 1476; active means well fitted curve in the direction sought with a large enough effect; inconclusive means small, poorly fitted or top-dose-only effect, or another doubt; inactive means no such curve, though single readings can be large; an effect the other way counts as inactive or inconclusive;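 further: plate controls were enzyme without inhibitor for no effect and buffer without enzyme for full effect; nearly all actives have a fitted effect of over 40% in size; top concentration of the series not given in the record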
Target sequence (P25779 123-467 limits assumed): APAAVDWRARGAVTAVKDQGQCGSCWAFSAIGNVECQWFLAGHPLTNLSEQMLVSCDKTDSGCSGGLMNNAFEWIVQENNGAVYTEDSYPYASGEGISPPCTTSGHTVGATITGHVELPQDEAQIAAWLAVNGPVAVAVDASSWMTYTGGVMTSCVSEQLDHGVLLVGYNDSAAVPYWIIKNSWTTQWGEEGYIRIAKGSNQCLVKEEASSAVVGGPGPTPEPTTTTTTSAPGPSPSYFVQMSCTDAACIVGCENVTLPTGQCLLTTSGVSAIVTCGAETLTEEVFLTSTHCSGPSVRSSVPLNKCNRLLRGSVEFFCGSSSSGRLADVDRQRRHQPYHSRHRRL
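Purified cruzain at 1.5 nM, pre-incubated 15 min with compound at room temperature in 100 mM sodium acetate pH 5.5, 5 mM DTT, 0.00005% Triton X-100. Reaction started with 2 uM Z-FR-AMC; AMC fluorescence increase over 60 s gives rate.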
Cruzain Triton: inhibitors of Trypanosoma cruzi cruzain with detergent; P25779; purified cruzain, Z-FR-AMC fluorescence, 0.01% Triton; Potency, µM, for inactives: max response, negative = inhibition, actives largely listed as inhibitors; actives 0.43% (n = 200,000); AID 1478; active means well fitted curve in the direction sought with a large enough effect; inconclusive means small, poorly fitted or top-dose-only effect, or another doubt; inactive means no such curve, though single readings can be large; an effect the other way counts as inactive or inconclusive;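 further: plate controls were neutral wells for no effect and buffer without enzyme for full effect; nearly all actives have a fitted effect of over 40% in size; top concentration of the series not given in the record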
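Purified cruzain (1.5 nM final) was preincubated with compounds for 15 min at room temperature in 100 mM sodium acetate pH 5.5, 5 mM DTT, 0.01% Triton X-100. Reaction started with 2 uM Z-FR-AMC; AMC fluorescence change over 60 s gave activity.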
RE007 growth inh: less growth of the S. pombe RE007 Vpr strain; AID 651644; Potency, µM (series often up to 92.2 µM), inactives show at the top dose activity change, negative = less growth; S. pombe RE007 Vpr strain, BacTiter-Glo ATP luminescence, 24 h; control for the full effect not named in the record; actives 0.21% (n = 360,000); active = well fitted falling curve with a large enough effect; inconclusive = small, poorly fitted or top-dose-only effect; inactive = no such curve, though single readings can be large or run the other way;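 further: on the % scale 0 is the no-effect control and ±100 the full control effect; nearly all actives have a fitted effect of over 50% in size; the assay follows cell death caused by Vpr and the record does not say whether a fall means rescue or toxicity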
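Fission yeast RE007 carrying one integrated HIV-1 vpr copy, seeded at OD 0.01 in PMG+AL medium with 23 nL pinned compound. Grown 24 h at 30 degrees; viability read by BacTiter-Glo luminescence after 5 min.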
NS1 inh: inhibitors of influenza NS1 protein function; actives 0.4% (n = 270,000); S. cerevisiae slowed by influenza A NS1, growth recovery by OD600; AID 2326; Potency, µM (highest dose often 46.1 µM), inactives show at the top dose activity, positive = more growth; further: actives are rising curves; nearly all actives have a fitted effect of over 50% in size
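Growth recovery, yeast-based: influenza A NS1 expressed in S. cerevisiae causes slow growth, and suppressors are detected by OD600. The parent strain without NS1 is used as positive control.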
StopGo reporter: FMDV 2A StopGo reporter, luciferase signal. human cells with a luciferase reporter of 2A StopGo recoding; control for the full effect not named in the record. Potency, µM (top dose mostly 57.9 µM), inactives show top-dose signal change, negative = less light. actives 1.2% (n = 410,000). AID 1159524; active = well fitted falling curve with a large enough effect; inconclusive = small, poorly fitted or top-dose-only effect; inactive = no such curve, though single readings can be large or run the other way; tested in HEK293T cells; further: on the % scale 0 is the no-effect control and ±100 the full control effect; nearly all actives have a fitted effect of over 45% in size; luciferase light after 4 h
Lassa entry inh: blocks Lassa virus binding to or entry into cells; Lassa virus pseudotype entry inhibition, cell reporter; control for the full effect not named in the record; Potency, µM (highest dose often 37.9 µM), for the others: top-dose activity change, negative = inhibition, most hits filed as inhibitors; actives 1.2% (n = 300,000); AID 540256; active means well fitted inhibition curve with a large enough effect; inconclusive means small, poorly fitted or top-dose-only effect, or effect the other way; inactive means flat fitted curve, though single readings scatter; tested in HEK293 cells; further: on the % scale 0 is the no-effect control and ±100 the full control effect; nearly all actives have a fitted effect of over 50% in size; luciferase read-out
An asterisk follows results filed as active; ? = inconclusive; nt = no result given; & = joins results of further samples; [ ] = dose if it differs, or a comment. Unless noted, the call rests on the fitted dose curve; in most records, active means well fitted rising curve with a large enough effect; inconclusive means small, poorly fitted or top-dose-only effect; inactive means no such curve, though single readings can be large or run the other way. Potency means the concentration at half of the fitted maximal effect.

molecule,Lassa entry inh,NS1 inh,StopGo reporter,RE007 growth inh,SARS PLP yeast,Cruzain Triton,Cruzain noTriton,Marburg entry inh
Cc1cc(C)n(CCC(=O)N2CCN(S(=O)(=O)c3ccc(C)c(C)c3)CC2)n1,12%,-3%,-15%,-16%,1%,nt,nt,?
CCN1C(=O)CSc2ccc(C(=O)NC3CCCCC3)cc21,-7%,-10%,-5%,0%,-3%,2.1%,-3%,3%
O=C(Nc1ccc(CN2CCS(=O)(=O)CC2)cc1)c1ccc(C(F)(F)F)cc1,-29%,0%,?,6%,0%,nt,nt,nt
CSc1nsc(NC(=O)Cc2ccccc2)n1,-24%,-54%,nt,-11%,-9%,0.0%,-5%,20%
O=C(CCC(=O)c1ccc(F)cc1)Nc1cccnc1,0%,-9%,-11%,-14%,31%,-0.3%,-10%,-6%
CCOC(=O)C1(Cc2ccc(Cl)cc2)CCN(C(=O)CCc2cnccn2)CC1,10%,0%,?,-5%,0%,nt,nt,1%[46.1 µM]
COc1ccc(C2NC(=O)CS2)cc1 (centres undefined),4%,13%,1%,4%,4%,-1.4%,-5%,-3%
COc1ccc(NS(=O)(=O)c2cc(N=Nc3c(O)[nH]c(=O)[nH]c3=O)ccc2Cl)cc1,?,nt,11%,-1%,10%,nt,nt,2%
O=C(NCc1ccccc1)C1CC(=O)N(c2ccc(OCC(=O)N3CCCC3)cc2)C1 (centres undefined),1%,1%,-21%,0%,3%,-0.4%,-4%,-7%
CC(=O)OC1c2c(ccc3ccc(=O)oc23)OC(C)(C)C1OC(=O)CC(C)C (centres undefined),-8%,-51%,-9%&-21%,-24%,-31%,-15%&-16%,?,-29%&-29%
COc1ccccc1CNS(=O)(=O)c1cccs1,nt,3%,7%,2%,-3%,nt,nt,nt
CCOC(=O)c1ccc(NC(=O)CN2C(=O)CC(c3ccc(C)c(C)c3)=Nc3ccccc32)cc1,-23%[46.1 µM],nt,27%,nt,nt,-4.7%,?,nt
COc1ccc(NC(=O)Nc2nnc(-c3cccs3)s2)cc1,nt,5%,37%[activator],0%,3%,nt,nt,2%
CCC(Nc1ccc(-c2nc(-c3ccco3)no2)cc1[N+](=O)[O-])c1ccccc1 (centres undefined),17%[46.1 µM],nt,10%,nt,nt,-9.2%,?,9%[46.1 µM]
CCCn1c(N)c(C(=O)CSc2nc(C)cs2)c(=O)n(C)c1=O,-24%,0%,0%,-3%,-3%,-1.1%,-2%,10µM*
COCc1nc2ccccc2n1CCOc1cccc(C)c1,15%[46.1 µM],nt,-12%,nt,nt,1.1%,-2%,1%[46.1 µM]
Cc1ccc2[nH]c(=O)c(CN(Cc3ccc4c(c3)OCO4)Cc3nnnn3Cc3ccco3)cc2c1,-29%,?,-15%,9%,-3%,-3.1%,-8%,?
c1ccc(COc2ccc(Oc3nc(N4CCCCC4)nc(N4CCOCC4)n3)nn2)cc1,5.8µM*,-45%,-20%,-16%,-7%,-3.9%,?,?
Clc1ccc(-n2nnnc2SCc2cn3ccccc3n2)cc1,-3%,6%,-24%,-2%,14%,1.4%,-5%,-6%
Cc1ccc(C(=O)NCc2nnc(SCC(=O)Nc3ccccc3)n2C)cc1,-14%,0%,-8%,nt,13%,-1.6%,14%,-2%
CCOc1ccc2nc(NC(=O)c3ccc(S(=O)(=O)N4CCOCC4)cc3)sc2c1,3%,-42%,28µM*,-3%,5%,2.0%,?,9%
CN(c1ccccc1)S(=O)(=O)c1cccc(NC(=O)Cc2c(F)cccc2Cl)c1,11µM*,30%,12%,11%,8%,-4.9%,?,?
COc1ccc(COc2cc(-c3cccc(OC)c3)nc3ccc(NC(=O)c4cccnc4)cc23)cc1,15µM*,?,-27%,2%,6%,-0.4%&-2.0%,12%&2%,-21%
C[C@@H](NC(=O)c1cc2c([nH]c3ccccc32)c(-c2ccccc2)n1)C(=O)O,nt,16%,-12%,6%,1%,nt,nt,nt
Cc1cccc(OCCOCCn2c(-c3ccc(Cl)cc3)nc3ccccc3c2=O)c1C,16%[46.1 µM],nt,6%,nt,nt,-4.5%,6%,0%[46.1 µM]
c1ccn2cc(C34CC5CC(CC(C5)C3)C4)nc2c1,8%,nt,-7%,-25%,2%,nt,nt,16%&16%[46.1 µM]
Cc1cccc(NC(=S)N2CCn3cccc3C2c2cccnc2)c1 (centres undefined),-3%,5%,-22%,4%,19%,-4.2%,-3%,?
COc1cccc(CNC(=O)CSC2=Nc3ccccc3C3=NC(C(C)C)C(=O)N23)c1 (centres undefined),-2%[46.1 µM],nt,-2%,nt,nt,-1.7%,-2%,nt
CCCOC(=O)C(C)n1nnc2sc(-c3ccccc3)cc2c1=O (centres undefined),2%[46.1 µM],nt,-7%,nt,nt,-4.6%,-9%,4%[46.1 µM]
C/C(=N/NC(=O)c1ccco1)c1ccc(NC(=O)c2ccc(Br)o2)cc1,0%,-37%,28%,-8%,-7%,nt,nt,7%
N#Cc1c(-c2ccccc2F)cc(C2CC2)nc1SCC(=O)c1cccs1,-20%,12%,-20%,-8%,8%,-2.2%,?,-3%
CNS(=O)(=O)c1ccc(-c2ccc(C=C3C(=O)NC(=O)NC3=O)o2)cc1,nt,10%,7%,3%,7%,nt,nt,nt
On1cnnc1-c1ccccc1,0%,5%,-3%,10%,7%,2.9%,4%,2%
CCCCCNc1nc(NCCCO)c(C#N)c2c1CN(C)CC2,-1%,4%,-10%,0%,1%,1.9%,-4%,-29%
Cn1cc(C(=O)NS(=O)(=O)Nc2ccc(Br)cc2)c2ccccc21,nt,-6%,3%,-4%,1%,nt,nt,nt
CC(NC(=O)/C(C#N)=C/c1ccc(OCC(=O)O)cc1)c1ccccc1 (centres undefined),nt,14%,1%,-6%,-1%,nt,nt,nt
COc1cnc(-c2ccccc2)[nH]c1=O,-22%[46.1 µM],nt,-7%,12%,-6%,nt,nt,8%[46.1 µM]
C=CCNc1nc(N)c(C(=C(C#N)C#N)c2ccc(Br)cc2)s1,?,23%,5.6µM*,-4%,3%,12%,?,?
Cc1nc(CC(=O)Nc2nccs2)cs1,10%,-1%,2%,9%,-1%,nt,nt,?
CC(NCc1ccccc1)c1ccccc1O (centres undefined),-3%,5%,-5%,-25%,1%,nt,nt,16%[46.1 µM]
COc1ccc(CC(=O)OC(C)CN2CCCCC2)cc1 (centres undefined),6%[46.1 µM],2%,-7%,4%,0%,nt,nt,2%[46.1 µM]
O=C(c1ccc(CS(=O)c2cccc(Cl)c2)o1)N1CCOCC1 (centres undefined),nt,7%,-11%,-4%,?,nt,nt,nt
CCOc1ccc2nc(N3CCCC(C(=O)NCCc4ccc(Cl)cc4)C3)sc2c1 (centres undefined),nt,nt,20%,nt,nt,-2.5%,-4%,14%[46.1 µM]
CC(C)(C)C(=O)OCc1nc(-c2ccc(F)cc2)cs1,?,-2%,55%[activator],5%,0%,nt,nt,?
CSCCC1NC2(C(=O)Nc3ccc(Cl)cc32)[C@@H]2C(=O)N(C3CCCC3)C(=O)[C@H]12 (some centres undefined),-23%,-13%,0%,-2%,4%,-7.7%,4%,?
Cc1cccc(C(=O)N2CCCC(c3nc(-c4ccc(F)cc4)no3)C2)c1 (centres undefined),-7%,-24%,-22%,1%,-5%,nt,nt,-6%
Oc1cc2c(cc1C(c1ccc(Br)cc1)N1CCCC1)OCO2 (centres undefined),0%,11%,?,?,-5%,nt,nt,-5%[46.1 µM]
CC(=NCc1ccco1)c1c(O)n(-c2ccccc2C)c(=O)[nH]c1=O,?,1%,-14%,-3%,0%,nt,nt,14%
COc1cc(C(=O)N2CCC(n3cnc4cc(F)ccc43)CC2)cc(OC)c1OC,1%,-10%,1%,-5%,1%,0.6%,-8%,3%
CN(C(=O)C1CCC(CNS(=O)(=O)c2cccc3cccnc23)CC1)C1CCCCC1 (centres undefined),?,7%,-20%,7%,-5%,nt,nt,?
CCCc1ncc(CN2CCCCC2C(=O)Nc2ccc(Oc3ccccc3)nc2)cn1 (centres undefined),-1%,nt,-7%,-15%,nt,nt,nt,?
CCOc1ccccc1Nc1nnc(C)c(=O)[nH]1,-4%,-7%,6%,-24%,-1%,4.6%,-1%,5%[46.1 µM]
O=C(O)CSCC(=O)N1CCN(c2cc(C(F)(F)F)nc3ccccc23)CC1,nt,3%,-2%,-2%,1%,nt,nt,nt
O=c1c2[nH]c3ccc(Br)cc3c2ncn1CCCn1ccnc1,7%,5%,0%,?,-1%,-2.7%,-1%,-1%
CCOc1ncccc1C(=O)Nc1ccc(Cl)cc1,10%,-21%,-1%,?,?,-0.4%,4%,-11%
CCOC(=O)c1sc(NC(=O)CSc2nc(C)cc(C)c2C#N)c(C#N)c1C,?,9%,-20%,3%,-3%,0.7%,5%,17%

Remaining list, next part
molecule,Lassa entry inh,NS1 inh,StopGo reporter,RE007 growth inh,SARS PLP yeast,Cruzain Triton,Cruzain noTriton,Marburg entry inh
CCOc1cccc(C(=O)Nc2ccc(S(=O)(=O)N(Cc3ccccc3)c3ccccc3)cc2)c1,-15%[46.1 µM],nt,?,nt,nt,-1.5%,?,?
Cc1cc(C)nc(NN2C(=O)C=CC2=O)n1,nt,4%,0%,-11%,0%,nt,nt,nt
O=C(O/N=C(/c1ccccc1)c1ccncc1)c1ccccc1[N+](=O)[O-],-6%,-33%,-22%,6%,-2%,nt,nt,20%
CN(C)c1ncc(CN2CCC(C(=O)Nc3ccc(-n4cccn4)cc3)CC2)s1,11%,5%,-7%,20%,6%,nt,nt,19%
O=C(O)c1cccc(N2CCCCS2(=O)=O)c1,7%,5%,-11%,-7%,2%,0.3%,-5%,-1%
CCC(=O)Nc1ccc(C(=O)OCC(=O)c2ccc(C)c([N+](=O)[O-])c2)cc1,?,-14%,-4%,2%,1%,-0.1%,?,?
COc1cccc2cc(C(C)N(CCCN3CCOCC3)C(=S)Nc3cc(C)ccc3C)oc12 (centres undefined),?,nt,-2%,4%,-3%,nt,nt,?
